HIV TAR-Tat = HIV-1 TAR-Tat binding disruption. actives 0.6% (n = 100,000). z-score (no concentration beside the values). HIV-1 TAR RNA, Tat peptide displacement FRET; stronger effect = higher value;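 also: score is relative to mean and SD of negative controls; some compounds called inactive have numbers as strong as hits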
CDC25B CDK2 inh = human CDC25B-CDK2/CyclinA binding inhibition; P30305+P24941; HTRF CDC25B-CDK2/CyclinA binding, anti-His/anti-Flag; stronger effect = higher value; z-score (concentration not given with the values); actives 0.72% (n = 94,000); AID 1259370;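 also: score is relative to mean and SD of negative controls; strong numbers were not always called active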
An asterisk follows results filed as active; / = no result given.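 The calls were made as follows: active = z-score from 3 up in half or more of its runs; inactive = the rest.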

Each structure is followed by: CDC25B CDK2 inh	HIV TAR-Tat
CCN1CCN(c2oc(COc3ccc(Cl)cc3)nc2C#N)CC1
  -1.7	-0.86
O=C(CCC(=O)N1CC2CCCN2c2ccccc21)NCCc1ccco1 (stereo not drawn)
  /	-3
c1ccc(-n2cccc2)c(N2CCCCC2)c1
  -0.86	/
O=C(NCCc1ccccn1)c1csc(Cc2c(Cl)cccc2Cl)n1
  1.1	/
O=C(CC1CCCC1)Nc1cccc2nsnc12
  /	-0.39
NC(=O)c1cc2ccccc2oc1=O
  -1.6	/
Fc1ccc(-n2ncc3c(N4CCN(c5cccc(Cl)c5)CC4)ncnc32)cc1
  /	-0.36
CCCCNc1nc(C)nc2oc(C)c(C(=O)OCC)c12
  /	0.78
CC(C)(C)c1nnc2sc(C3COc4ccccc4O3)nn12 (stereo not drawn)
  -1.1	-0.7
CCN1CCN(c2nc(N3CCCCC3)nc3c2cnn3C)CC1
  /	1.4

The list continues:
Each structure is followed by: CDC25B CDK2 inh	HIV TAR-Tat
CCOC(=O)c1cnn2c1NC(c1ccc(Cl)cc1)CC2C(F)(F)F (stereo not drawn)
  -0.58	0.55
CCC12c3ccccc3C(c3ccccc31)C1C(=O)N(c3cccc(C(C)=O)c3)C(=O)C12 (stereo not drawn)
  -2.9	/
Cc1c(C(=O)C(=O)NC2CCCCCC2)c2ccccc2n1C
  -1.4	/
CSc1cccc(NC(=S)NCc2ccc(C#N)cc2)c1
  1.5	/
CCN1C(C(=O)c2ccccc2)=C(OC(=O)c2ccc(OC)c(OC)c2)c2ccccc2S1(=O)=O
  -2.3	0.49
O=c1[nH]c2cc3c(cc2c(=O)n1CCCc1nc(-c2cccnc2)no1)OCO3
  /	-1
O=C(CC1CC2CCC1C2)NC(c1ccccc1)c1ccccc1 (stereo not drawn)
  /	0.96
Cc1cc(C)c(C#N)c(SCC(=O)CC(=O)OC(C)C)n1
  1.1	/
CC(C)(C)C1(O)CC(C(F)(F)F)=NN1C(=O)c1ccc(I)cc1 (stereo not drawn)
  -1.5	/
O=C(CC1(O)C(=O)N(CCc2ccccc2)c2ccccc21)c1ccc2c(c1)OCO2 (stereo not drawn)
  -0.09	2.2

Carrying on:
Each structure is followed by: CDC25B CDK2 inh	HIV TAR-Tat
Oc1cc(CN2CCCCCC2)c(O)cc1CN1CCCCCC1
  0.32	/
Cc1cccc(-c2nc3c(c(=O)[nH]2)Cc2cc(C)ccc2O3)c1
  -1.2	0.64
CCOC(=O)N1CCC(Nc2c(NCCN3CCCC3)c(=O)c2=O)CC1
  -1.9	-2.8
O=C1/C(=C/c2c[nH]c3ccccc23)CSc2ccccc21
  -1.5	/
CSc1ccc(-c2noc(CCn3c(=O)[nH]c4cc5c(cc4c3=O)OCO5)n2)cc1
  /	0.33
O=S(=O)(CCN(C1CCCCC1)S(=O)(=O)c1ccc(F)cc1)N1CCNCC1
  /	2.3
C=CCN(Cc1nc(-c2ccc(C)cc2)no1)C(=O)NCCC
  -0.99	1.4
CCCSc1nc(=O)n(-c2cccc(OC)c2)c2c1CCC2
  0.46	-1.9
COc1ccccc1-c1nnc(-c2cc3cc4c5c(c3oc2=O)CCCN5CCC4)o1
  2.3	/
CCCc1cc(=O)oc2cc3oc4c(c3cc12)CCCC4
  -1.5	/

The listing continues:
Each structure is followed by: CDC25B CDK2 inh	HIV TAR-Tat
CCCC(=O)N1c2ccccc2-c2nnc(SC)nc2OC1c1cccnc1 (stereo not drawn)
  -1.1	1.6
COc1ccc(C(=O)NC(NCc2cccnc2)(C(F)(F)F)C(F)(F)F)cc1
  -1.8	/
CSc1ncc(Cl)c(C(=O)Nc2c(C(=O)Nc3ccccc3)oc3ccccc23)n1
  -0.88	1.6
Cc1ccccc1NCc1c(C#N)c2ccccc2n1C
  -0.89	1.6
CC(C)Cc1nc(NCCCO)c(C#N)c2c1COC(C)(C)C2
  -0.3	-0.1
Cc1c(C)n(-c2ccc(Cl)cc2)c2ncn(CC(=O)NC3CCS(=O)(=O)C3)c(=O)c12 (stereo not drawn)
  /	1.8
COCC(=O)Oc1c(S(=O)(=O)c2ccccc2)c(C)nn1C(C)(C)C
  -3	/
CCCN1CCN(S(=O)(=O)c2cc(C(=O)OCC)n[nH]2)CC1
  /	0.8
CCC1CCCCN1S(=O)(=O)c1ccc2c(c1)CC(C)N2C(C)=O (stereo not drawn)
  /	0.21
CCOP(=O)(OCC)C(/N=C/c1ccccc1)C(F)(F)F (stereo not drawn)
  -0.27	/

(next part)
Each structure is followed by: CDC25B CDK2 inh	HIV TAR-Tat
CCN1CCN(S(=O)(=O)c2ccc3c(c2)CC(C)N3C(=O)C2CC2)CC1 (stereo not drawn)
  /	0.61
CCC1CCCCN1CCCNC(=O)C1CCN(c2ncnc3onc(C)c23)CC1 (stereo not drawn)
  /	0.65
Cc1nc2cccnc2n1C1CCN(C(=O)NC(C)C)CC1
  /	1.1
Cc1sc2ncnc(SCC(=O)c3cc(C)n(CC4CCCO4)c3C)c2c1C (stereo not drawn)
  -1.7	/
Cc1cc(-c2ccc(S(=O)(=O)NCc3ccc4c(c3)OCO4)s2)n[nH]1
  /	0.51
O=C(O)c1cc2cccc(S(=O)(=O)N3CCOCC3)c2cc1O
  0.28	0.72
Cc1nc2sccn2c(=O)c1S(=O)(=O)NCc1cccs1
  /	0.8
O=C1CSc2ccc(S(=O)(=O)NCc3ccc(Cl)cc3)cc2N1
  /	0.23
CCCCN(C)CCCNC(=O)C1=C(C)C(=O)OC12CCN(S(C)(=O)=O)CC2
  /	-0.23
O=c1[nH]c2ccc(S(=O)(=O)Nc3cccc(F)c3)cc2[nH]c1=O
  -0.07	-1.2

(more compounds)
Each structure is followed by: CDC25B CDK2 inh	HIV TAR-Tat
CCOC(=O)c1ccc(Oc2nc(NC)nc(SC)n2)cc1
  -0.05	4
O=C(CSc1nnc(-c2ccncc2)o1)Nc1ccc(Br)cc1
  -2.3	0.58
CC1CNCCN1S(=O)(=O)c1cccc2cnccc12 (stereo not drawn)
  0.2	/
CCC(CC)C(=O)N(C)Cc1cc(=O)[nH]c2ccccc12
  0.49	0.67
CSC1=N/C(=C\c2ccc([N+](=O)[O-])cc2)C(=O)N1CCOc1cccc(Cl)c1
  -1.2	/
CCOC(=O)c1c(S(=O)(=O)NCCOC)c(C)n(C)c1C
  /	1.9
Cc1ccc(-c2ncns2)cc1
  -2.8	/
CCc1ccc(S(=O)(=O)Nc2ccc3c(c2)N(S(=O)(=O)c2ccc(F)cc2)CCC3)s1
  /	2.7
Cc1cc(S(=O)(=O)NCCc2sc(-c3ccc(F)cc3)nc2C)ccc1F
  /	1
Cc1cc(Nc2ccc(F)cc2)nc(-n2cc([N+](=O)[O-])cn2)n1
  /	0.87

Filtered by structure, the entries above containing an aryl thioether with sulfur outside any ring.
Each structure is followed by: CDC25B CDK2 inh	HIV TAR-Tat
CSc1cccc(NC(=S)NCc2ccc(C#N)cc2)c1
  1.5	/
Cc1cc(C)c(C#N)c(SCC(=O)CC(=O)OC(C)C)n1
  1.1	/
CSc1ccc(-c2noc(CCn3c(=O)[nH]c4cc5c(cc4c3=O)OCO5)n2)cc1
  /	0.33
CCCSc1nc(=O)n(-c2cccc(OC)c2)c2c1CCC2
  0.46	-1.9
CCCC(=O)N1c2ccccc2-c2nnc(SC)nc2OC1c1cccnc1 (stereo not drawn)
  -1.1	1.6
CSc1ncc(Cl)c(C(=O)Nc2c(C(=O)Nc3ccccc3)oc3ccccc23)n1
  -0.88	1.6
Cc1sc2ncnc(SCC(=O)c3cc(C)n(CC4CCCO4)c3C)c2c1C (stereo not drawn)
  -1.7	/
CCOC(=O)c1ccc(Oc2nc(NC)nc(SC)n2)cc1
  -0.05	4
O=C(CSc1nnc(-c2ccncc2)o1)Nc1ccc(Br)cc1
  -2.3	0.58

Going on with the list:
Each structure is followed by: CDC25B CDK2 inh	HIV TAR-Tat
COc1ccc(OC)c(CN=C2NS(=O)(=O)C(c3ccc(C(C)C)cc3)=C2C)c1
  -1.6	-0.32
CCS(=O)(=O)n1nc(-c2ccco2)nc1NCc1ccc(C(C)C)cc1
  -0.97	0.31
CC1Sc2ccc(S(=O)(=O)N3CCC(C(=O)N4CCN(C)CC4)CC3)cc2NC1=O (stereo not drawn)
  /	0.62
COC(=O)CNC(=O)Cn1cnc2c(oc3ccccc32)c1=O
  0.37	0.13
O=C1CCSC(c2cccnc2)N1CCc1ccc(Cl)cc1 (stereo not drawn)
  -1.1	/
CCC(C)Cn1c(C2CC(=O)N(c3ccccc3F)C2)nc2ccccc21 (stereo not drawn)
  3.5	1.4
Cc1cc(C)n2nc(N(Cc3ccccc3)S(=O)(=O)c3ccccc3)nc2n1
  -1.7	-0.52
Cc1ccc(CN(C(=O)c2cc(=O)c3cc(C)cc(C)c3o2)C2CCS(=O)(=O)C2)cc1 (stereo not drawn)
  -2.2	-1.1
COC(=O)c1ccc(S(=O)(=O)NNC(=O)c2ccc(Cl)cc2)n1C
  -1.8	/
Cc1ccc(C(=O)O)cc1N1C(=O)c2ccc(S(=O)(=O)c3ccc(C(=O)O)cc3)cc2C1=O
  6.2	/

Next results.
Each structure is followed by: CDC25B CDK2 inh	HIV TAR-Tat
CCOC(=O)CNC(=O)NCCc1csc(C)c1C
  /	-2
CN1C(=O)c2cc(C(=O)NCCN3CCOCC3)nn2CC1(C)C(=O)NC1CCCC1 (stereo not drawn)
  /	0.98
Cc1ccnc(NS(=O)(=O)c2ccc(N3C(=O)C4CCCCC4C3=O)cc2)n1 (stereo not drawn)
  -0.39	1
COc1cccc(-c2coc3c(C)c4oc(=O)c5ccccc5c4cc23)c1
  -1.3	0.8
O=C(O)c1ccccc1C(=O)NCc1ccccc1OC(F)(F)F
  -1.2	/
COc1ccc(C2NC(=O)c3[nH]nc(-c4cccc(OC)c4)c32)cc1 (stereo not drawn)
  -0.65	0.44
O=c1c2ccccc2n(Cc2ccc(F)cc2)c(=O)n1Cc1ccc2c(c1)OCO2
  -2.4	/
CCc1nn2c(=O)cc(CSCC(=O)Nc3ccc(F)cc3)nc2s1
  /	0.69
CC1=C(C(=O)OCc2ccc(C)cc2)C(c2cc3c(cc2Br)OCO3)CC(=O)N1 (stereo not drawn)
  1	-0.82
CN(c1ccc(Br)cc1)c1ncnc2c1nc1n2CCCCC1
  /	2

The listing continues:
Each structure is followed by: CDC25B CDK2 inh	HIV TAR-Tat
CCC(=O)Nc1ccccc1SCc1cc(=O)n2nc(CC)sc2n1
  /	-0.7
CCc1nnc(NC(=O)CCc2nc(-c3ccc(C)n(CC)c3=O)no2)s1
  0.74	1.1
CN1c2ccccc2Oc2nnc(N3CCN(Cc4ccccc4)CC3)cc21
  -1.9	/
NS(=O)(=O)c1ccc(CCNc2ncnc3c2cnn3-c2ccc(F)cc2)cc1
  /	2.4
c1ccc(-c2nnc(COc3ccc4ccccc4c3)o2)cc1
  -1.3	1.1
COCCCNC(=O)Cn1ncn2c(cc3sccc32)c1=O
  -0.89	-0.9
Clc1cccc(N2CCN(CCNc3nc4ccccc4n4nnnc34)CC2)c1
  -0.94	-0.26
CC(C)(C)C(=O)Cn1nnc(-c2ccncc2)n1
  -3.1	/
CC1CCCC(NS(=O)(=O)c2ccc3[nH]c4c(c3c2)CCCC4)C1C (stereo not drawn)
  /	-0.44
C1CCC(N2CCC(N3CCOCC3)CC2)CC1
  -1.2	/

Additional entries follow.
Each structure is followed by: CDC25B CDK2 inh	HIV TAR-Tat
O=C1CN(Cc2ccccc2)S(=O)(=O)c2ccccc2N1Cc1ccccc1
  /	1.9
O=C(NC1CC1)c1cccc(NC(=O)N2CCSc3ncccc32)c1
  /	0.85
CCC(=O)N1N=C2c3ccc(OC)cc3CCC2C1c1cccc(F)c1 (stereo not drawn)
  0.24	/
COc1ccc(NCc2nnc3n2CCCCC3)c(OC)c1
  /	0.34
O=C(CCc1nnc2ccc(N3CCCC3)nn12)NC1CCCCC1
  /	0.87
Cn1c(CN2CCCC2)nc2cc(NS(=O)(=O)c3ccc(F)cc3)ccc21
  -2	2.2
O=S(=O)(Nc1ccc(N2CCN(c3ccc(C(F)(F)F)cn3)CC2)nc1)c1cccc(Cl)c1
  -1.2	/
O=c1c2nccnc2nc(SCc2ccc(Cl)cc2)n1Cc1ccccc1
  -0.17	3.8
O=C(Cn1c(=O)oc2cc(S(=O)(=O)N3CCOCC3)ccc21)N1CCc2ccccc21
  0.43	/
CSc1ncc(C#N)c2nc(-c3ccc(N(C)C)cc3)nn12
  1.1	/

The listing continues.
Each structure is followed by: CDC25B CDK2 inh	HIV TAR-Tat
CCn1c(=O)sc2cc(NS(=O)(=O)c3ccc(C)cc3)ccc21
  -1.2	0.39
O=C(Nc1csc(Cc2c(Cl)cccc2Cl)n1)NN1CCOCC1
  -1.4	/
Cc1ccc(C(=O)Nc2ccccc2C(=O)O)cc1S(=O)(=O)N1CCOCC1
  -0.65	/
O=C(O)CN(CC(=O)O)S(=O)(=O)c1ccccc1
  /	17*
Fc1ccc(C2=Nc3ccc(F)cc3NC(c3cccnc3)=N2)cc1
  0.07	1.1
CN1C(=O)CCC(CCC(=O)O)(c2ccccc2O)C1=O (stereo not drawn)
  -1.3	-0.33
O=C(c1oc2ccccc2c1-n1cccc1)C1CC1
  2.4	1.1
Fc1ccccc1N1CCN(c2ncc3c(n2)CCN(Cc2cc(Br)cs2)C3)CC1
  /	1.5
CC(C)CC(=O)N1CCN(C(=O)c2cc(-c3cccs3)[nH]n2)CC1
  /	2.4
O=S(=O)(Nc1nc2n(n1)C(c1ccccc1)C=C(c1ccc(Cl)cc1)N2)c1ccccc1 (stereo not drawn)
  -1.3	/

Going on with the list.
Each structure is followed by: CDC25B CDK2 inh	HIV TAR-Tat
CCOC(=O)C1C2C=CC3(CN(CC4CCCO4)C(=O)C13)O2 (stereo not drawn)
  -1.2	0.06
CCCC(=O)OC1=C(C(=O)OC)N(C)S(=O)(=O)c2ccccc21
  -1.6	0.42
COC(=O)C1=C(C)Nc2c(c(=O)n(C)c(=O)n2C)C1c1cc(OC)c(OC)c(OC)c1 (stereo not drawn)
  -2	/
COc1ccc(OC2C(=O)N(Cc3ccc4c(c3)OCO4)C2c2ccc(F)cc2)cc1 (stereo not drawn)
  1.9	1.7
c1ccc2oc(CCCc3nc4ccccc4o3)nc2c1
  -0.93	0.94

High-throughput results from PubChem BioAssay.
